# Source: PubChem BioAssay (several laboratories)
# A1 inh = inhibitors of the anti-apoptotic protein A1, read as caspase activation; caspase activation, % (concentration not given with the values); hit rate 0.066% among 330,000; MEF A1-2A-BIM cells, Caspase-Glo 3/7 luminescence, 3 h; percent of clofoctol response, vehicle zero; AID 2462;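 active = over half of replicate activation scores above 10%, or exactly half above 10 with the replicate mean above 10; inconclusive = replicate mean below 10 yet half the replicates above 10; inactive = over half of replicates below 10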;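 also: wells of about 30 µL received 50 nL stock; many hits fall short of the cut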
# Beta cell apopt = beta cell apoptosis inhibition; INS-1E cytokine-induced death, ATP luminescence, 48 h; percent of positive-control rescue, neutral wells zero; hit rate 0.8% among 300,000; protection from apoptosis, % (test concentration not listed);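 active = all replicates at 75% or more, or half of them and the mean; inconclusive = half reach 75% but not the mean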;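 also: 0% = cytokine-treated negative control wells and 100% = positive control rescue; higher means more ATP so stronger rescue from cytokine killing; wells of about 40 µL received 100 nL stock; the first replicate is given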
# Calb FLC = affects C. albicans growth with fluconazole. AID 1979. C. albicans CaCi-2 (fluconazole-resistant clinical isolate) + fluconazole, Alamar Blue growth, 48 h. growth inhibition, % (no concentration beside the values). hit rate 0.57% among 300,000;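 active = most replicates above 75%; inconclusive = exactly half above 75%; inactive = most below 75%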;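 also: all wells also contain fluconazole at 8 µg/ml as a sub-toxic cotreatment; 0% = median of DMSO wells and 100% = median of geldanamycin control wells; wells of about 8 µL received 7.5 nL stock; the first replicate is given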
# RanGTP-Imp inh = inhibitors of RanGTP-importin-beta interaction, primary screen, biochemical, FRET, CFP-Ran, YFP-importin-beta, homogeneous; hit rate 1.1% among 300,000; cell-free CFP-Ran/YFP-importin-beta FRET ratio; inhibition, % (test concentration not listed);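 active = most replicates above 15%; inconclusive = exactly half above 15%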;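 also: 0% = DMSO wells and 100% = Ran loaded with GDP instead of GTP; wells of about 40 µL received 100 nL stock; the first replicate is given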
# T cruzi inh = blocks replication of Trypanosoma cruzi. hit rate 1.4% among 300,000. inhibition, % (no concentration beside the values). T. cruzi beta-gal in NIH3T3, luminescence, 90 h;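 active = mean inhibition across valid replicates above about 55%, limit read from the data; inconclusive = mean below that limit but half or more replicates reach it; inactive = mean below it, under half of replicates reach it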;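 also: signal also drops with host cell toxicity which is not excluded here; 0% = plate median of DMSO wells and 100% = zero luminescence signal; higher percent means less beta-gal luminescence so fewer parasites; stock transfer was 50 nL into about 50 µL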
# B2AR ag = human beta-2 adrenergic receptor agonism by FAP; P07550; response, % (no concentration beside the values); hit rate 0.43% among 340,000; AID 504454; Am2.2-beta2AR cells, FAP receptor internalization, flow cytometry; reference of the scale not given here;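 active = response above a set limit, near 3 SD of response in nonfluorescent compounds, cut at about 42% in these data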;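 also: stock transfer was 100 nL into about 11 µL; a reference agonist was the positive control; negative values mostly stem from fluorescent compounds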
# UCH37 inh = human UCH37 deubiquitinating enzyme inhibition. purified proteasome/UCH37, Ub-AMC cleavage fluorescence. inhibition, % (concentration not given with the values). hit rate 0.33% among 330,000. AID 588478;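 active = mean of two replicates above 20%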;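 also: 0% = compound-free wells with enzyme and 100% = wells lacking proteasome; stock transfer was 100 nL into about 20 µL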
#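 Test system – human UCH37 enzyme supplied as purified proteasome complex · Incubation – 30 min preincubation with enzyme, 25 min cleavage at room temperature · Detection – AMC fluorescence from Ub-AMC cleavage, excitation 355 nm, emission 460 nm · Benchmarks – no-proteasome wells (full inhibition) and compound-free wells (no inhibition)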
# LANA-H2B inh = blocks KSHV LANA binding to histone H2A/H2B. hit rate 0.6% among 320,000. inhibition, % (no concentration beside the values). cell-free LANA-H2A/H2B peptide, fluorescence polarization; in the data active = inhibition mostly above about 10%, no sharp cut-off; inactive = mostly below about 6.7%;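 also: stock transfer was 7.5 nL into about 10 µL; 0% = median of vehicle wells and 100% = median of positive control wells; one replicate is shown; the record names a cut of 25% in any replicate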
# Target sequence (Q9QR71 whole entry, looked up): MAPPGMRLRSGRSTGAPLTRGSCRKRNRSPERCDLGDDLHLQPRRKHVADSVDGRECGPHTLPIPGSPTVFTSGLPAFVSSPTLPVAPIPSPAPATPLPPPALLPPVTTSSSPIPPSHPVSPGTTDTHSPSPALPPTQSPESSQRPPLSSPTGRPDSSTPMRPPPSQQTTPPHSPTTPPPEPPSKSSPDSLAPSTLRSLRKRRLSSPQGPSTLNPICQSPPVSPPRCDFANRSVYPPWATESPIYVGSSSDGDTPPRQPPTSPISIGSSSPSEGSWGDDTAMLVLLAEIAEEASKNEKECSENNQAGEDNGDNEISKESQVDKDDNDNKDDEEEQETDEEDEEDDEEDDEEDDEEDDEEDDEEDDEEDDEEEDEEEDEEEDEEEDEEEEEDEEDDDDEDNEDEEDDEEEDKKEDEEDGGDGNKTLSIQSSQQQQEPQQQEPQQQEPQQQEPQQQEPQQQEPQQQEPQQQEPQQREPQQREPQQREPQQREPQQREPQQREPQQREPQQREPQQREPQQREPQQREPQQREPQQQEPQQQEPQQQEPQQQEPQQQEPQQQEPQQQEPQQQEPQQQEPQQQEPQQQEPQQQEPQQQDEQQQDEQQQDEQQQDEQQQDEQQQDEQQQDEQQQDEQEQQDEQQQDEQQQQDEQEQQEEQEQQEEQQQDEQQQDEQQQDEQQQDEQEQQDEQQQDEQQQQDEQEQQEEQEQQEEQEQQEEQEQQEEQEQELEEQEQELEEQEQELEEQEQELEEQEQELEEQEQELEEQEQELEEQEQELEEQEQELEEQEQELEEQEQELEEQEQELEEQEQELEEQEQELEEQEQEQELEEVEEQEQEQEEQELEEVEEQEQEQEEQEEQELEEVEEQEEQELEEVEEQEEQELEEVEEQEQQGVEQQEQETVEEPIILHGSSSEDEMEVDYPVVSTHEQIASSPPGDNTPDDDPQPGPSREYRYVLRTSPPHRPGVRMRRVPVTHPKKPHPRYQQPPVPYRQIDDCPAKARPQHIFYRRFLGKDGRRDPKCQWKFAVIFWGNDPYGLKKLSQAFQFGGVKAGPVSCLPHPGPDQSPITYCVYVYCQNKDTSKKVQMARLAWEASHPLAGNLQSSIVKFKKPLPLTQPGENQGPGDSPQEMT
# Numbers without * were called inactive; i = inactive; ? = inconclusive; · = not tested or not shown; & = joins results of further samples.
SMILES,A1 inh,Beta cell apopt,Calb FLC,RanGTP-Imp inh,T cruzi inh,B2AR ag,UCH37 inh,LANA-H2B inh
Cc1ccc(S(=O)(=O)NCCSc2ccccc2)cc1[N+](=O)[O-],-1.1,-7,-27,3.6,-19,4,4.5,-9.3
CCOc1ccc2c(c1)c(=O)c(S(=O)(=O)c1ccc(CC)cc1)cn2C,0.6,-4,·,-2.9,6,0,-19,-5.4
CCC(=O)Nc1sc(Cc2ccc3c(c2)OCO3)c(C)c1C(N)=O,0.4,-13,10,-4.9,19,-12,2.4,1.7
Cc1nc(CSc2n[nH]c(=O)n2-c2ccccc2)cs1,0.7,-4,-1,5.0,-7,6,4.1,1.7
COc1ccccc1-c1ccc(SCc2cccc(C)c2)nn1,0.0,19,-17,-1.3,28,6,4.3,-3.2
COCCn1c(SCc2cccnc2)nnc1-c1ccco1,-0.9,5,1,-2.7,-5,-3,2.9,-2.0
O=C(Nc1cc(C(F)(F)F)ccc1N1CCOCC1)c1cccc(F)c1,0.1,-3,-10,2.4,-1,-9,-3.7,2.2
CC1(C)CC(=O)C=C(NCCN2CCN(C(=S)Nc3ccccc3)CC2)C1,1.2,·,-7,2.6,-3,-6,5.1,-1.3
CCCCN(CC)CCCNC(=S)Nc1ccc2nc(N3CCN(CC)CC3)cc(C)c2c1,0.9,-5,-1,2.2,49,7,-1.3,-1.1
Nc1c(C(=O)Nc2ccc(Cl)cc2)sc2nc(N3CCOCC3)c3c(c12)CCCC3,0.3,-5,10,0.0,31,10,-384,3.5
Cc1cc(C)cc(N2CC(c3nc4ccccc4n3C)CC2=O)c1 (stereo not given),-0.1,3,-6,2.2,-5,2,1.9,19
COC(=O)C1=C(C)N(CCCC(=O)O)C(=O)NC1c1ccc(Cl)cc1 (stereo not given),1.2,-1,-23,-2.9,-16,-2,0.3,1.3
CC(=O)N(CCC(c1ccco1)C(C)C)Cc1ccc(Cl)cc1 (stereo not given),-0.1,7,-5,-1.1,-9,-7,6.1,-1.1
Cc1ccc(/C=C/C(=O)NN2CCN(C)CC2)cc1,0.7,-1,6,0.5,20,1,1.8,-19
Cc1c(C(=O)N(Cc2ccncc2)CC2CCCO2)oc2c(F)cccc12 (stereo not given),1.7,-1,5,0.4,-2,2,3.9,-0.1
Cc1ccc(S(=O)(=O)N2CCN(CC(=O)NC3CCCc4ccccc43)CC2)cc1C (stereo not given),0.2,5,-20,0.0,38,7&3,3.5&0.9,0.4
COc1ccccc1OCCNC(=O)c1cccc(S(=O)(=O)N2CC(C)OC(C)C2)c1 (stereo not given),0.0,-4,4,-2.3,6,13,-0.7,2.3
CCCC(C)NC(=O)Cc1ccc(S(=O)(=O)N2CCOCC2)s1 (stereo not given),1.2,-24,·,·,·,-2,3.4,1.9
O=C(NCCCn1ccnc1)/C(=C/c1ccc(Cl)cc1)NC(=O)c1ccccc1,-0.1,1,-4,1.0,-9,6,4.8,-3.5
COc1ccc(NC(=O)c2csc(Cc3ccccc3)n2)cc1,0.3,-4,3,4.5,3,1,-1.0,-0.9
CN(C)N1C(N)=C(C#N)C(c2ccsc2)C2=C1CC(C)(C)CC2=O (stereo not given),0.9,0,-4,0.4,-5,3,3.7,-2.5
NC(=O)NC(=O)CSc1ccccc1,-0.3,-2,30,3.1,-30,-5,1.1,2.8
O=C(CSc1ccc(-c2cccnc2)nn1)Nc1ccc(F)c(F)c1,1.2,-3,4,-0.9,-7,-4,-1.6,3.3
COc1cc(NC(=O)CSc2nnnn2C2CCCC2)cc(OC)c1,-0.3,3,2,1.0,0,-5,·,-1.5
CC(=O)N1N=C(c2ccc(C)o2)CC1c1cccc(F)c1 (stereo not given),0.4,-7,2,-2.5,-11,-13,0.8,0.1

# Later entries
SMILES,A1 inh,Beta cell apopt,Calb FLC,RanGTP-Imp inh,T cruzi inh,B2AR ag,UCH37 inh,LANA-H2B inh
CN1CCc2c1nc1ccccc1c2N=C1CCCN1Cc1ccccc1,0.4,4,14,-2.0,16,15,-4.1,9.3
CC1CCN(C(=S)c2cn(Cc3ccc(F)cc3)c3ccccc23)CC1,0.3,5,2,-0.3,-8,-11,1.6,1.5
C[C@H](NCCc1ccc(O)cc1)[C@H](O)c1ccc(O)cc1,0.3,1,·,·,·,-3,-2.0,0.9
Cc1cnc(NC(=O)CC2CCCC2)s1,-0.4,·,-4,-1.9,-25,-5,0.4,0.9
O=C(CCN1C(=O)c2ccccc2S1(=O)=O)Nc1cccc(F)c1,2.4,-4,-2,-0.5,-7,-7,2.3,7.5
O=C(c1cccs1)N1CCN(Cc2cccc([N+](=O)[O-])c2)CC1,-0.3,-5,-11,0.5,5,-9,6.5,-0.5
COC(=O)Cc1[nH]n(-c2ccccc2)c(=O)c1C(C)=Nc1ccccc1,0.3,-5,0,2.5,17,7,2.8,-1.2
COc1cccc2c(=O)ccoc12,-0.6,-4,-3,0.1,-5,-2,-21,2.0
O=C(Nc1ccc(Br)cc1)Nc1ccccc1F,-6.8,8,-21,1.7,-12,-3,18,0.3
COc1ccc(-c2nn(-c3ccccc3)cc2CN(C)CCn2ccnc2C)c(F)c1,0.4,2,0,2.8,11,-2,3.9,0.7
Cn1cnnc1Sc1nc([N+](=O)[O-])nn1C,-0.1,0,36,-2.0,15,5,4.3,1.4
CCc1ccc(/C=C2\Oc3c(ccc(O)c3CN3CCN(CCO)CC3)C2=O)cc1,0.5,-2,-3,12,-5,11,-35,6.5
Clc1ccc(CNc2nnnn2-c2ccccc2)c(Cl)c1,0.5,8,-4,7.8,8,2,3.6,-4.1
O=C(N/C(=C\c1ccccc1)C(=O)N1CCCCC1)c1ccc(Br)o1,-1.9,4,27,6.8,-1,3,5.9,-3.2
Cc1cc(=O)oc2cc(OCC(=O)N(C)C3CCS(=O)(=O)C3)c(Cl)cc12 (stereo not given),0.9,-3,-4,-1.0,-8,-29,-10,-0.8
COc1cccc(NC(=S)Nc2ccc(O)cc2)c1,-3.6,-5,-6,8.3,-14,0,11,-2.2
CN(C)S(=O)(=O)c1cccc(C(=O)Nc2n[nH]c(C(F)(F)F)n2)c1,3.0,-4,9,2.0,-11,-5,·,1.3
c1ccc(C2CC(c3cccs3)Nc3nnnn32)cc1 (stereo not given),0.4,-2,-1,-0.8,-24,-10,-3.5,-2.0
O=C1CCN(S(=O)(=O)c2ccccc2)CCN1CCOCc1ccc(C(F)(F)F)cc1,0.8,-2,-4,-1.4,-19,-1,0.9,0.9
Cc1ccc(C(=O)O/N=C(\N)c2cccnc2)cc1[N+](=O)[O-],-0.5,-1,-1,-0.2,7,-3,5.0,2.2
CCCn1c(=O)[nH]c(=O)c2c(C(=O)OCC)cc(-c3cccs3)nc21,0.1,1,30,-1.4,20,7,i,-1.4
CC(=O)NC12CC3CC(C1)CC(C(=O)NCC(=O)Nc1c(C)cc(C)cc1C)(C3)C2,-0.8,-2,·,·,·,-4,0.4,·
CCN(CC)c1ccc(/C=N/NC(=O)CCC(=O)NCc2ccccc2)c(O)c1,0.3,98*,-1,-2.7,27,17,·,1.6
CC(C)c1ccc(/C=N/NC(=O)C(=O)NCCCN2CCOCC2)cc1,0.3,-7,4,?,-13,1,·,3.2
CC1CCCC(C)N1C(=O)COC(=O)COc1ccc(C#N)cc1 (stereo not given),0.5,3,·,·,·,18,0.0,-4.7

# 5 records drawn at random from the list so far:
SMILES,A1 inh,Beta cell apopt,Calb FLC,RanGTP-Imp inh,T cruzi inh,B2AR ag,UCH37 inh,LANA-H2B inh
Cc1ccc(C(=O)O/N=C(\N)c2cccnc2)cc1[N+](=O)[O-],-0.5,-1,-1,-0.2,7,-3,5.0,2.2
CN(C)S(=O)(=O)c1cccc(C(=O)Nc2n[nH]c(C(F)(F)F)n2)c1,3.0,-4,9,2.0,-11,-5,·,1.3
Cc1cc(=O)oc2cc(OCC(=O)N(C)C3CCS(=O)(=O)C3)c(Cl)cc12 (stereo not given),0.9,-3,-4,-1.0,-8,-29,-10,-0.8
CCCn1c(=O)[nH]c(=O)c2c(C(=O)OCC)cc(-c3cccs3)nc21,0.1,1,30,-1.4,20,7,i,-1.4
CC(C)c1ccc(/C=N/NC(=O)C(=O)NCCCN2CCOCC2)cc1,0.3,-7,4,?,-13,1,·,3.2

# As a short view, 2 of the compounds above.
SMILES,A1 inh,Beta cell apopt,Calb FLC,RanGTP-Imp inh,T cruzi inh,B2AR ag,UCH37 inh,LANA-H2B inh
CC(C)c1ccc(/C=N/NC(=O)C(=O)NCCCN2CCOCC2)cc1,0.3,-7,4,?,-13,1,·,3.2
CC1CCCC(C)N1C(=O)COC(=O)COc1ccc(C#N)cc1 (stereo not given),0.5,3,·,·,·,18,0.0,-4.7

# Additional records.
SMILES,A1 inh,Beta cell apopt,Calb FLC,RanGTP-Imp inh,T cruzi inh,B2AR ag,UCH37 inh,LANA-H2B inh
Cc1ccc(NC(=O)C2(N(C(=O)Cn3nnnc3N)c3ccc(C)cc3)CCCCC2)cc1,-0.4,-1,9,0.7,0,-1,1.3,0.5
COc1cccc(CNc2nc3ccccc3n2C)c1O,-8.9,-2,0,-0.6,-6,-15,·,0.5
Cn1c(COc2ccc3ccccc3c2)nnc1SCC(N)=O,-0.2,-5,-2,?,0,0,-0.7,-0.1
O=C(O)CN1C(=O)CSC1=S,0.4,-1,2,-2.2,-1,-5,0.0,2.5
CC(C)CNC(=O)C1CCN(c2ccc(S(=O)(=O)N3CCOCC3)cc2[N+](=O)[O-])CC1,0.7,5,0,-1.4,26,9,-0.1,-2.8
O=C(Nc1ccc(Cl)c([N+](=O)[O-])c1)Nc1nc2ccccc2s1,-0.3,6,2,?,6,·,·,-2.8
Cn1c(C(=O)N2CCCC(C(=O)N3CCN(C(=O)c4ccco4)CC3)C2)cc2sccc21 (stereo not given),-0.9,-6,·,·,·,-16,3.0,1.1
Cc1ccc(NC(=O)COC(=O)CCc2nc3ccccc3c(=O)[nH]2)c(Br)c1,0.5,-1,-2,3.8,-4,5,3.3,0.2
COCc1nnc(NC(=O)c2ccc(S(=O)(=O)N3CCCc4ccccc43)cc2)o1,-0.8,14,92*,1.6,-42,-1,-0.3,-2.4
NS(=O)(=O)c1ccc(CNC(=O)NC23CC4CC(CC(C4)C2)C3)cc1,0.1,-1,-4,1.5,-2,1,3.8,3.0
O=C1Nc2ccc(Cl)cc2C(=O)C1(F)c1ccccc1 (stereo not given),0.3,·,-31,-0.6,-22,-6,0.3,-1.1
c1ccc(N2CCCCC2)c(NC2=NCCC2)c1,0.0,-1,6,3.2,-5,4,3.0,0.6
O=C(Nc1cccc(NC(=O)c2ccccc2Cl)c1)c1ccc(F)cc1,-0.8,-1,3,2.9,12,1,2.8,-1.7
CC(C)(C)[C@@H]1C=C(C(=O)Nc2ccccc2)O[C@H](OCc2ccc(CO)cc2)C1,-0.5,-4,-29,-3.7,26,-23,-0.2,-0.8
Cc1[nH]c2ccc(C(=O)N3CCN(c4ccccn4)CC3)cc2c1C,-0.5,-13,-6,0.0,2,2,3.5,-0.5
O=C1C2C3C=CC([C@@H]2C(=O)N1C1CCCCC1)[C@H]1C(=O)N(C2CCCCC2)C(=O)C31 (stereo not given in full),0.0,·,-17,1.0,-8,-12,4.1,0.3
CCOc1ccc(N2C(=O)C3ON(C)C(c4ccc([N+](=O)[O-])cc4)C3C2=O)cc1 (stereo not given),0.9,-3,-1,4.3,-2,-6,2.7,-1.6
